Compound activity from PubChem BioAssay.
gsp agonist: gsp mutant agonism; gsp mutant cells, cAMP HTRF, 30 min; control for the full effect not named in the record; Potency, µM (top dose mostly 76.9 µM), inactives show at the top dose activation (cAMP increase), hits mostly activators; 340,000 compounds, 0.13% hits; AID 624287; active = well fitted activation curve with a large enough effect; inconclusive = small, poorly fitted or top-dose-only effect, or another doubt; inactive = no such curve, though single readings can be large or run the other way; cell line not stated here;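 note: phosphodiesterase inhibitor Ro 20-1724 added with compounds to block cAMP breakdown; potency is the fitted concentration of half-maximal effect; nearly all actives have a fitted effect of over 60% in size; about a fifth of the inactives were tested at one dose only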
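Cells in DMEM/10% FBS with G418 were pretreated with compounds in DMSO plus […] (300 uM stock) for 30 min at 37C. cAMP was measured by HTRF (cAMP-d2 plus anti-cAMP antibody-K) after 30 min at room temperature.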
Six1-Eya2 inh: inhibitors of human Six1/Eya2 interaction | 360,000 compounds, 0.56% hits | activity change, % (no concentration beside the values) | AlphaScreen GST-Six1/His-Eya2 binding, biochemical; stronger effect = lower value; control for the full effect not named in the record | Q15475+O00167; in the data active = activity change below about -65%; inconclusive = about -30% to -65%; inactive = above about -30%; note: % is set by controls: 0 for no effect and ±100 for the full control effect
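Homogeneous AlphaScreen proximity assay pairing GST-Six1 with His-tagged Eya2 (added as 5X mix: 250 nM and 500 nM) in 50 mM Tris pH 8.0, 300 mM NaCl, 1 mM TCEP. Glutathione donor and nickel acceptor beads; 1 h, 37 °C, dark.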
CtBP-E1A inh: blocks the CtBP interaction with E1A; 340,000 compounds, 0.49% hits; AID 651724; activity change, % (concentration not given with the values); AlphaScreen GST-E1A/His-CtBP binding, 1536-well; stronger effect = lower value; control for the full effect not named in the record; in the data active means activity change below about -65%; inconclusive means about -30% to -65%; inactive means above about -30%; note: % is set by controls: 0 for no effect and ±100 for the full control effect
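Steps: dispense buffer (Tris pH 8.0, NaCl 300 mM, TCEP 1 mM, BSA, Tween 20); add 5X protein mix (GST-E1A, His-CtBP, 125 nM each); pin 23 nL compound; 2 h at 37 °C, dark; add 5X beads (50 ug/mL); 1 h; read.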
gsp antag: gsp mutant antagonism; gsp-mutant cells, cAMP HTRF, 30 min; control for the full effect not named in the record; Potency, µM (titrated, usually from 76.9 µM), without a hit: at the top dose activity change, negative = inhibition, most hits filed as inhibitors; 340,000 compounds, 0.4% hits; active = falling curve of any shape with a large fitted effect; inconclusive = falling curve, mostly with a smaller effect; inactive = flat or rising curve; cell line not stated here;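 note: intracellular cAMP measured with PDE inhibitor Ro 20-1724 present during compound exposure; potency is the fitted concentration of half-maximal effect; % is set by controls: 0 for no effect and ±100 for the full control effect; nearly all actives have a fitted effect of over 65% in size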
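G418-selected cells were plated in DMEM/10% FBS for 16-24 h at 37C, then treated with compounds plus the PDE inhibitor […] (300 uM solution added) for 30 min at 37C. Intracellular cAMP was measured by HTRF after 30 min lysis at room temperature.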
D2 potentiator: human D2 receptor positive allosteric modulation; 360,000 compounds, 0.23% hits; potentiation, % (no concentration beside the values); DiscoveRx D2 beta-arrestin cells, luminescence, 90 min; 100% = 57 uM dopamine signal; P14416; active = potentiation of 50% or more; inconclusive = 30% to 50%; inactive = 30% or less;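 note: compound concentration not given in the record; tested on top of an EC20 dose of dopamine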
Target sequence (P14416 whole entry, looked up): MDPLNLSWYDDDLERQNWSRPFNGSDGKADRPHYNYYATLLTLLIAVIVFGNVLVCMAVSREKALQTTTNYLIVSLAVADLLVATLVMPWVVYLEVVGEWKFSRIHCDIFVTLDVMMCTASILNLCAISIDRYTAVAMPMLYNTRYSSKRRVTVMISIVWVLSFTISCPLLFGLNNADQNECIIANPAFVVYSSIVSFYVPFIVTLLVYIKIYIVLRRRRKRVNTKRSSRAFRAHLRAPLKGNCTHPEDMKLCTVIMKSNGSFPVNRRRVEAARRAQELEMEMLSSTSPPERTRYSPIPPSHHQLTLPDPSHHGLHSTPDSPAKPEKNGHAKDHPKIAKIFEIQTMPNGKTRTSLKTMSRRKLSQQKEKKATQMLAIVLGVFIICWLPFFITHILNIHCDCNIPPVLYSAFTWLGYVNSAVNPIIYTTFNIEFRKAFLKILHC
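PathHunter D2 cells, attached overnight at 37 deg C, received compound in DMSO plus dopamine at EC20 (50 nM final) for 90 min at 37 deg C. Beta-arrestin recruitment was read as luminescence after 1 h with detection reagent at ambient temperature.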
D2 agonist: human D2 receptor agonism in beta-arrestin assay. 360,000 compounds, 0.084% hits. P14416. DiscoveRx PathHunter D2 beta-arrestin, luminescence, 90 min; 100% = 57 uM dopamine signal. activation, % (concentration not given with the values). AID 624465; in the data active = activation above about 40%; inconclusive = about 15% to 40%; inactive = below about 15%; note: the text of the record calls up to 30% inactive
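DiscoveRx PathHunter D2 beta-arrestin cells (2,100/well) attached overnight, then compound-stimulated 90 min at 37 C in HBSS/10 mM HEPES/0.1% Tween-20 buffer; beta-galactosidase complementation read by luminescence after 1 h at ambient temperature. Dopamine 57 uM final (EC100) as control.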
The depositor's hits bear a star; ? = inconclusive; . = no result given; [ ] = another dose, or the depositor's remark.

SMILES	gsp agonist	Six1-Eya2 inh	CtBP-E1A inh	gsp antag	D2 potentiator	D2 agonist
CC(C)N(Cc1ccccc1)C(=O)COC(=O)/C=C/c1cnc2ccccc2n1	7%[15.4 µM]	-22	-87*	-18%	-8	-5.8
CCOC(=O)c1cnc2c(C#N)c(C)nn2c1-c1ccccc1	32%	6	5	-4%	4	1.0
O=C(NCc1ccco1)Nc1ccc([N+](=O)[O-])cc1	-16%	6	.	1%	-15	-2.6
COc1ccc(S(=O)(=O)N2CCC(C(=O)NCc3ccccn3)CC2)cc1C	-3%	6	-2	1%	-2	-1.9
CC(C)(C)OC(=O)N/N=C\c1cccnc1	-17%[15.4 µM]	-1	.	-3%	-6	5.9
C=CCN1C(=S)CC(c2ccccc2)=Nc2ccccc21	1%	-1	6	-1%	3	-6.5
Cc1onc(-c2ccccc2)c1-c1csc(COc2ccccc2)n1	-12%	39	.	-8%	-28	-13
COc1ccc(N2CCN(C(=O)C3CCN(S(=O)(=O)c4ccccc4)CC3)CC2)cc1	7%	3	2	-7%	-7	-0.7
Cn1c(=O)[nH]c(=O)c2c1nc(CN1CCOCC1)n2Cc1ccccc1	-4%	2	-3	8%	-9	-0.9
CCCCN1C(=O)/C(=C2/Sc3ccc(OC)cc3N2CC)SC1=S	?	-2	.	-2%	-11	-3.3

Sorted by count of non-hydrogen atoms (largest number first): some entries from above.
SMILES	gsp agonist	Six1-Eya2 inh	CtBP-E1A inh	gsp antag	D2 potentiator	D2 agonist
COc1ccc(N2CCN(C(=O)C3CCN(S(=O)(=O)c4ccccc4)CC3)CC2)cc1	7%	3	2	-7%	-7	-0.7
Cc1onc(-c2ccccc2)c1-c1csc(COc2ccccc2)n1	-12%	39	.	-8%	-28	-13
CC(C)(C)OC(=O)N/N=C\c1cccnc1	-17%[15.4 µM]	-1	.	-3%	-6	5.9

New compounds follow
SMILES	gsp agonist	Six1-Eya2 inh	CtBP-E1A inh	gsp antag	D2 potentiator	D2 agonist
O=C(Cc1ccc(F)cc1)N1CCN(c2ccc(F)cc2)CC1	9%[15.4 µM]	6	2	-1%	-6	-5.2
O=C(Cn1cnc2c(OCc3ccccc3)ncnc21)N1CCN(c2ccccn2)CC1	.	3	-7	9%	-1	-1.7
O=C(Nc1ccc(Cl)cc1)C1CCCN(S(=O)(=O)c2cnc[nH]2)C1 (stereo not given)	3%	0	1	-1%	-5	-2.1
O=C(CCN1C(=O)/C(=C/c2ccccc2F)SC1=S)Nc1ccccn1	8%[15.4 µM]	-2	-5	15%	-9	0.7
COc1c(F)c(F)c(C(=O)Nc2cccc(Cl)c2N2CCOCC2)c(F)c1F	-27%	3	7	4%	-5	0.0
CCOc1ccc(CNC(=O)C2Cc3cc(S(=O)(=O)N4CCCC4)ccc3N2C(C)=O)cc1 (stereo not given)	-18%	-2	-1	1%	-5	-0.8
N#C/C(=C\c1cccnc1)c1nc2c(s1)CCCC2	1%[15.4 µM]	6	-3	10%	-6	-0.6
CCCn1c(NCc2ccccn2)nc2ccccc21	-9%	-3	-3	5%	-3	-4.8
OC(COc1ccc(Cl)cc1Cl)Cn1ccnc1 (stereo not given)	0%[15.4 µM]	1	6	11%	-10	-2.9
COc1cc(NC(=O)c2cccc(C)c2)c(OC)cc1NC(=O)CN1CCOCC1	2%	4	.	-9%	2	1.5
COCCNC(=O)c1onc(CCl)c1C(=O)OC	?	8	5	-5%	-18	-4.4
Clc1cccc(Cl)c1CSc1nnc(CN2CCOCC2)n1-c1ccccc1	9%	4	3	-22%	1	-3.6
O=C(COc1ccccc1)NN1C(=O)CSC1=S	?	7	1	4%	-4	-2.1
Cc1ccc(-c2nn(CC(=O)NN3CCOCC3)c(=O)c3ccccc23)cc1	-11%	4	.	0%	-14	-6.3
CN1CCN(CC(O)COc2ccccc2)CC1 (stereo not given)	-2%	2	4	9%	-2	-1.1
COC(=O)C1=C(C(=O)c2ccccc2)C(c2ccc(OC)c(OC)c2)Nc2nnnn21 (stereo not given)	-10%	5	2	-14%	-1	-0.9
O=C(COC(=O)c1ccccc1Br)Nc1cccnc1Cl	-1%[15.4 µM]	14	-3	3%	-1	4.7
CC(=O)c1cnc(Nc2cccc(C)c2)s1	2%[15.4 µM]	0	6	.	-5	1.2
C/C(=N\Nc1ccccn1)c1ccc(Br)s1	17%	1	.	-6%	-8	7.5
COc1ccc(-c2cc(C(=O)Nc3ccc(F)cc3F)no2)cc1	0%[15.4 µM]	5	8	8%	-5	0.8
Cc1ccc(NC(=O)c2ccco2)c(NC(=O)Cc2cccs2)c1	2%	0	8	2%	-7	1.0
CC(C)n1cc(CN2CCCC(CNS(=O)(=O)c3cccc4cccnc34)C2)cn1 (stereo not given)	2%	1	6	4%	-23	-2.4
CC(C)c1ccc(S(=O)(=O)N2CCN(C(=O)c3cccc(F)c3)CC2)cc1	12%	-12	-9	-12%	-44	-4.2
N#CC(C#N)=Cc1ccc(NC(=O)c2ccc(Br)cc2)cc1	17%[15.4 µM]	-7	-2	-21%	-5	-0.9
NS(=O)(=O)c1cccc(NC(=O)c2cccc(S(=O)(=O)N3CCCCCC3)c2)c1	0%[15.4 µM]	-3	7	0%	5	-1.4
Clc1ccc(OCCSc2ncccn2)cc1	-17%	24	33	12%	-11	-2.1
COc1cccc(N2CCN(C(=O)c3nc4nc(C)cc(C)n4n3)CC2)c1	-3%	-7	0	3%	-6	-2.3
C=CCN1C(=O)C2C(C(=O)NC)C3C=CC2(O3)C1C(=O)NCc1ccc(OC)cc1 (stereo not given)	-3%	5	4	8%	13	0.6
Cc1ccc(NC(=O)CCNC(=O)c2ccccc2Cl)cc1S(=O)(=O)N1CCOCC1	-38%[inhibitor]	-3	1	13%	1	-0.1
CN1C(=O)c2ccc(N3CCCC3)cc2C1=O	24%	25	19	-23%	2	1.3

Arranged by value in D2 agonist (falling): 6 from the list above.
| mol | gsp agonist | Six1-Eya2 inh | CtBP-E1A inh | gsp antag | D2 potentiator | D2 agonist |
| --- | --- | --- | --- | --- | --- | --- |
| CC(C)(C)OC(=O)N/N=C\c1cccnc1 | -17%[15.4 µM] | -1 | . | -3% | -6 | 5.9 |
| CN1C(=O)c2ccc(N3CCCC3)cc2C1=O | 24% | 25 | 19 | -23% | 2 | 1.3 |
| O=C(NCc1ccco1)Nc1ccc([N+](=O)[O-])cc1 | -16% | 6 | . | 1% | -15 | -2.6 |
| CCCCN1C(=O)/C(=C2/Sc3ccc(OC)cc3N2CC)SC1=S | ? | -2 | . | -2% | -11 | -3.3 |
| COCCNC(=O)c1onc(CCl)c1C(=O)OC | ? | 8 | 5 | -5% | -18 | -4.4 |
| CCCn1c(NCc2ccccn2)nc2ccccc21 | -9% | -3 | -3 | 5% | -3 | -4.8 |

(more compounds)
SMILES	gsp agonist	Six1-Eya2 inh	CtBP-E1A inh	gsp antag	D2 potentiator	D2 agonist
COc1ccc(CN2CCN(C(=O)CCC(=O)Nc3nnc(C(F)(F)F)s3)CC2)cc1F	?	-3	-9	-20%	-15	-4.5
COCCN1C(=O)c2cc(C(=O)Nc3cccc(F)c3)ccc2C1Nc1cccc(F)c1 (stereo not given)	-42%[inhibitor]	-4	-3	-2%	-1	-5.5
NS(=O)(=O)c1ccc(NC(=O)c2cccc3cc4ccccc4nc23)cc1	-3%	-12	-15	-27%	-1	0.7
CC(Cc1n[nH]c(=S)o1)c1ccccc1 (stereo not given)	-7%	3	.	-2%	-12	7.8
COc1cc(Cl)c(CNC[C@H]2O[C@@H](n3ccc(=O)[nH]c3=O)[C@H](O)[C@@H]2O)c(Cl)c1O	.	-9	-27	0%	.	-0.2
O=C(CCS(=O)(=O)c1ccc(Cl)cc1)NCCN1C(=O)S/C(=C\c2ccccc2F)C1=O	-2%	-10	-9	50µM*	8	-3.7
CSCCC(NC(=O)c1ccc(=O)n(C)n1)c1nc2ccccc2[nH]1 (stereo not given)	1%	-11	-2	16%	-4	-0.9
CCc1cc2c(=O)c(-c3cnn(-c4ccccc4)c3)c(C)oc2cc1OCC(=O)Nc1ccc(F)c(F)c1	1%	3	-1	10%	-14	-0.3
O=C(COC(=O)CCc1ccc(S(=O)(=O)N2CCOCC2)cc1)Nc1ncc(C(F)(F)F)cc1Cl	8%	1	1	0%	-6	-2.2
O=C(C[C@H]1C[C@@H]2c3cc(NC(=O)c4cccnc4)ccc3O[C@@H]2[C@H](CO)O1)NCc1ccncc1	15%	10	-9	.	-6	-3.2

CtBP-E1A inh: entries above that show a hit
SMILES	gsp agonist	Six1-Eya2 inh	CtBP-E1A inh	gsp antag	D2 potentiator	D2 agonist
CC(C)N(Cc1ccccc1)C(=O)COC(=O)/C=C/c1cnc2ccccc2n1	7%[15.4 µM]	-22	-87*	-18%	-8	-5.8

In the list so far, these have a thiophene ring, fused or not.
SMILES	gsp agonist	Six1-Eya2 inh	CtBP-E1A inh	gsp antag	D2 potentiator	D2 agonist
C/C(=N\Nc1ccccn1)c1ccc(Br)s1	17%	1	.	-6%	-8	7.5
Cc1ccc(NC(=O)c2ccco2)c(NC(=O)Cc2cccs2)c1	2%	0	8	2%	-7	1.0

Continuation.
SMILES	gsp agonist	Six1-Eya2 inh	CtBP-E1A inh	gsp antag	D2 potentiator	D2 agonist
CC1CCCN(C(=O)CCNS(=O)(=O)c2ccc(Br)cc2)C1 (stereo not given)	-40%[inhibitor]	8	0	5%	-4	1.2
COc1cc2c(cc1OC)CN(C(=O)Cc1ccc(OC)c(S(=O)(=O)N3CCOCC3)c1)CC2	17%	-21	-14	5%	-8	-3.6
C(=N\c1ncnc2sccc12)/NOCc1ccccc1	?	-2	4	-13%	-7	0.4
C=CCOc1ccc(C2N3CC4(C)CN2CC(CCC)(C3)C4=O)cc1 (stereo not given)	-1%	3	0	4%	8	2.2
NC(=O)COC(=O)C(Cc1ccccc1)NS(=O)(=O)c1ccccc1F (stereo not given)	1%	14	15	4%	-6	-1.6
CCOC(=O)c1ccc(NC(=S)N2CCN(CCN=CC3=C(O)CC(C)(C)CC3=O)CC2)cc1	16%[15.4 µM]	14	0	3%	-4	-8.5
COc1c(C)cccc1C(=O)Nc1ccc(CN2CCCCC2)cc1	-35%[inhibitor]	3	4	11%	-5	1.3
